# Screens as filed in PubChem.
# Mtb MbtI inh: blocks the Mycobacterium tuberculosis siderophore enzyme MbtI; P9WFX0; purified MbtI enzyme, fluorescence intensity read-out; inhibition, %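 (about 17 µg/mL by stock and volumes)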; hit rate 0.89% among 100,000; AID 493033;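 active = above 50% in both replicates, above 80% if mildly self-fluorescent; inactive = the rest, strongly fluorescent compounds included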;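 note: 0% = mean of negative and 100% = mean of positive controls; one replicate is shown; some compounds called inactive have numbers as strong as hits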
# Polio RdRp inh: poliovirus RNA polymerase inhibition | P03300 | poliovirus polymerase elongation, fluorescence polarization; stronger effect = lower value | % elongation, % (compound at 16.7 µg/mL) | hit rate 0.66% among 150,000 | AID 588519; in the data active = % elongation below about 90%; note: some results filed as inactive read as strong as hits
# Target sequence (P03300 1749-2209 limits assumed): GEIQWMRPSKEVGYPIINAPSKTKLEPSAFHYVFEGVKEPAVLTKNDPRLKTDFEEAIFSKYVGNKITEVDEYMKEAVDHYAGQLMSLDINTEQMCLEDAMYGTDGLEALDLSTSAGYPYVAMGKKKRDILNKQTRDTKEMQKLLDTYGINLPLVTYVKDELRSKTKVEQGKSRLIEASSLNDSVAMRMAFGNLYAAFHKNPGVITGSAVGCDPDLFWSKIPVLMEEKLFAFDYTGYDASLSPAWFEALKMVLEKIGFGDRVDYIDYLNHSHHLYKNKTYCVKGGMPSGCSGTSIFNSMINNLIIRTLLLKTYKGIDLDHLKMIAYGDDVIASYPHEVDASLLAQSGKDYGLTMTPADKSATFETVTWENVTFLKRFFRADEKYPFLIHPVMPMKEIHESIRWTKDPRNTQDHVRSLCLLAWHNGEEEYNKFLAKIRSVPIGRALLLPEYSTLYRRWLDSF
# Mtb MenB inh: Mtb MenB enzyme inhibition | MenB enzyme assay, absorbance read-out; some hits fall short of the stated cut | inhibition, %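 (about 12 µg/mL by stock and volumes)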 | hit rate 0.43% among 100,000 | P9WNP5;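 active = mean of two replicates above 30%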;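 note: 0% = no compound and 100% = wells with inactive enzyme; the first replicate is given; strong numbers were not always called active; inactives centre near -10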
# Target sequence (P9WNP5 whole entry, looked up): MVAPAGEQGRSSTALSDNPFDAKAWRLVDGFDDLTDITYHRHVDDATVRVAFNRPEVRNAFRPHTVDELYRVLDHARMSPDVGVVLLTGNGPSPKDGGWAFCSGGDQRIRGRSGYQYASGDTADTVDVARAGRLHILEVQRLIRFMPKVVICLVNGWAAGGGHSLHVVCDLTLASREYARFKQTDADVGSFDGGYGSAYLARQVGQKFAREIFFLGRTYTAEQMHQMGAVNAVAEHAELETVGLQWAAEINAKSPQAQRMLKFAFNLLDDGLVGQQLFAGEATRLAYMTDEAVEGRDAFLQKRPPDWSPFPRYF
# Polio RdRp inh intensity: recorded beside Polio RdRp inh, whose call it bears; % elongation; measured here: total intensity read-out; formula for this scale not given here;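 total fluorescence in place of polarization; lower means less elongation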
# Numbers without * were called inactive; i = inactive; nt = no result given; & = joins results of further samples.
SMILES,Mtb MbtI inh,Polio RdRp inh,Polio RdRp inh intensity,Mtb MenB inh
CC1=NN(C(=O)c2ccco2)C(O)(c2ccncc2)C1 (stereo unspecified),nt,107.0,117.0,-73.2
O=C(c1ccc(S(=O)(=O)N2CCCCC2)cc1)N1CCN(c2ccccc2F)CC1,-1.8,102.0,105.0,-3.0
NC(=O)c1ccccc1N=Cc1ccc(O)c(O)c1,nt,106.0,111.0,0.5
O=C(Cn1ncc2c(=O)oc3ccccc3c21)NCCN1CCN(c2ccccc2F)CC1,-2.5,102.0,104.0,-22.4
CCC(C)NC(=O)CN1C(=O)C(CC)Sc2ccccc21 (stereo unspecified),2.7,101.0,104.0,8.8
COC(=O)C1C(=O)c2c([nH]c(C(=O)OC3CCCCCC3)c2C)CC1C (stereo unspecified),-4.9,101.0,104.0,5.4
O=C(O)COc1ccc(/C=C2/SC(=O)NC2=O)cc1,1.3,102.0,101.0,9.1
CN1C(=O)Cc2ccccc2C1=O,15.1,38.0*,44.0*,-69.6
COCC(C)n1c(COc2ccccc2F)n[nH]c1=S (stereo unspecified),27.5,106.0,110.0,-29.7
COc1ccccc1NC(=O)N(Cc1ccccc1)c1ccccn1,16.1,105.0,103.0,-24.0
O=c1c2c(N3CCOCC3)cc(N3CCOCC3)nc2n(-c2ccccc2)c(=O)n1-c1ccccc1,20.9,99.0,95.0,-7.7
Cc1ccc(-c2cc3c4c(C)n(C5CCCCC5)c(C)c4c(C)nn3c2)o1,-3.5,101.0,106.0,-5.9
O=c1[nH]cc(NC(=S)N2CCOCC2)c(=O)[nH]1,-4.2,102.0,107.0,-3.9
C=CCNC(=S)NN1CCN(C)CC1,7.1,98.0,99.0,-26.8
NC1CCN(c2ncccn2)CC1,91.1,101.0,102.0,-66.0
Cc1cc(C)c(C#N)c(SCc2ccccc2)n1,4.0,105.0,97.0,-5.1
CCc1ccccc1N1CC(C(=O)OCCN2C(=O)c3ccccc3C2=O)CC1=O (stereo unspecified),1.1,103.0,106.0,-16.2
CN1CCN(C(c2ccncc2)c2ccc3cccnc3c2O)CC1 (stereo unspecified),nt,108.0,121.0,-8.3
Cc1ccc2c(c1)c1c(n2C)C(C(N)=O)CCC1 (stereo unspecified),34.5,103.0,108.0,-19.6
NC(=O)COC(=O)/C=C/c1ccc(I)o1,11.0,101.0,107.0,nt

# Four of these compounds, set out differently.
# Under each structure – Mtb MbtI inh | Polio RdRp inh | Polio RdRp inh intensity | Mtb MenB inh
- NC(=O)COC(=O)/C=C/c1ccc(I)o1
→ 11.0 | 101.0 | 107.0 | nt
- C=CCNC(=S)NN1CCN(C)CC1
→ 7.1 | 98.0 | 99.0 | -26.8
- O=C(Cn1ncc2c(=O)oc3ccccc3c21)NCCN1CCN(c2ccccc2F)CC1
→ -2.5 | 102.0 | 104.0 | -22.4
- COCC(C)n1c(COc2ccccc2F)n[nH]c1=S (stereo unspecified)
→ 27.5 | 106.0 | 110.0 | -29.7

# Two entries from above, reformatted:
SMILES | Mtb MbtI inh | Polio RdRp inh | Polio RdRp inh intensity | Mtb MenB inh
COCC(C)n1c(COc2ccccc2F)n[nH]c1=S (stereo unspecified) | 27.5 | 106.0 | 110.0 | -29.7
NC1CCN(c2ncccn2)CC1 | 91.1 | 101.0 | 102.0 | -66.0

# (listing goes on)
SMILES,Mtb MbtI inh,Polio RdRp inh,Polio RdRp inh intensity,Mtb MenB inh
CNc1cc(C(=O)O)ccn1,90.3,102.0,102.0,-9.4
CCOc1ccc(C(=O)NN2C(=O)c3ccccc3C2=O)cc1,-7.3,101.0,99.0,-92.7
C=CCn1c(SCC(=O)N2CCCCC2C)nc2ccccc2c1=O (stereo unspecified),10.4,105.0,103.0,-32.3
O=C(OCc1ccccc1)Sc1nc2ccccc2o1,30.5,97.0,101.0,-25.0
CCC(=O)Nc1ccc(C(=O)O)cc1NC(=O)CC,3.5,102.0,99.0,-14.2
CC1(C)C2CCC1(CS(=O)(=O)N1CCC(C(=O)O)CC1)C(=O)C2 (stereo unspecified),-8.7,103.0,99.0,-17.8
O=C(OC1CCOC1=O)c1cn(-c2ccccc2)nc1-c1ccccc1 (stereo unspecified),-5.3,99.0,101.0,-10.8
Brc1ccc(/C=N/n2cnnc2SCc2ccccc2)cc1,-6.0,102.0,105.0,5.6
Cc1cccc(NC(=S)N2CCCCC2C(N)=O)c1 (stereo unspecified),58.4*,97.0,104.0,4.9
CCCc1nnc(NC(=O)C(CC)Sc2nc(N)cc(=O)[nH]2)s1 (stereo unspecified),0.6,102.0,98.0,-62.9
CN(CC(=O)N1CCCc2ccccc21)S(=O)(=O)c1ccc2c(c1)OCCO2,-6.2,99.0,107.0,2.8
Cn1nc(C(F)(F)F)c(-c2ccccc2)c1NC(=O)COCC(=O)O,10.9,102.0,95.0,-18.2
CCCCCCCc1c(COC)[nH]c(=S)[nH]c1=O,55.4*,102.0,103.0,-30.6
CN(C1CCCCC1)S(=O)(=O)c1ccc(-n2cccn2)cc1,-4.7,97.0,96.0,-16.4
CCOC(=O)c1c(NC(=O)C(C)OC(=O)c2ccc(-n3cnnn3)cc2)sc2c1CCCC2 (stereo unspecified),-0.3,96.0,100.0,-5.4
CCOC(=O)C1CCCN(CC(O)COc2ccc3ccccc3c2)C1 (stereo unspecified),-10.2,99.0,102.0,-102.1
O=C(OC1CCCCC1)c1c(F)c(F)c(F)c(F)c1F,-6.5,101.0,101.0,-16.2
O=c1c(Cc2ccc(Br)cc2)csc2ccccc12,-13.8,102.0,111.0,-10.5
CCC(C)c1ccc(O)c(NC(=O)c2cccnc2)c1 (stereo unspecified),0.5,102.0,106.0,-4.4
Cc1cc(C(F)(F)F)nc(SCC(=O)Nc2c(C)n(C)n(-c3ccccc3)c2=O)n1,-2.2,102.0,101.0,14.7
Cc1cc(C)c(S(=O)(=O)N2CCN(CCO)CC2)c(C)c1,-0.2,103.0,101.0,10.3
CSc1nc(-c2ccco2)nn1C(=O)c1ccc(Cl)cc1,5.3,100.0,103.0,9.2
c1cncc(-c2nc(-c3ccc4ccccc4c3)cs2)c1,-14.2,104.0,109.0,nt
Cc1ccccc1-n1c(SCC(=O)N(C(C)C)C(C)C)nnc1-c1cccnc1,-3.4,101.0,100.0,-7.3
C/C=C(\C)C(=O)OC1c2c(ccc3ccc(=O)oc23)OC(C)(C)C1OC(C)=O (stereo unspecified),89.0,102.0,100.0,-28.0
Cc1ccc(NC(=O)CCNS(=O)(=O)c2ccc3c(c2)CC(C)N3C(=O)C2CC2)cc1C (stereo unspecified),-18.2,102.0,104.0,-7.7
CCC(CC)c1nnc(NC(=O)c2c(OC)cccc2OC)s1,nt,99.0,100.0,-4.1
CC(NC(=O)c1ccco1)C(=O)O (stereo unspecified),-9.1,100.0,104.0,nt
CN(Cc1ccccc1)C(=O)COC(=O)c1ccc(Cl)cc1N,55.1,101.0,100.0,nt
COc1ccc(-c2cc(=O)[nH]c(=S)[nH]2)cc1,32.5,101.0,102.0,-11.3
O=C1c2ccccc2C(=O)C1(c1ccccc1)N1CCN(CCO)CC1,0.8,100.0,105.0,-9.8
Cn1c(C(=O)N2COCC2(C)C)cc2c(=O)n3ccccc3nc21,109.5,103.0,106.0,2.5
COCCn1c(=O)[nH]c2cc(C(=O)OC)ccc2c1=O,-2.6,102.0,103.0,10.1
CCOC(=O)c1noc(C)c1-c1csc(COc2cc(Cl)cc(Cl)c2)n1,0.0,99.0,101.0,-20.1
COC(=O)c1ccc(OCC2c3cc(OC)c(OC)cc3CCN2C(=O)c2ccc(Br)o2)cc1 (stereo unspecified),-8.5,99.0,103.0,-4.5
O=C(O)C1CC2CCC(C1)C21SCCS1 (stereo unspecified),4.9,101.0,108.0,-0.3
NS(=O)(=O)c1ccc(NC(=O)NC2CC(=O)N(c3ccc(Cl)cc3)C2)cc1 (stereo unspecified),-6.1,98.0,98.0,-10.1
O=C1CCCc2nc(N3CCCCC3)sc21,-4.4,102.0,106.0,0.6
CCc1ccc(NC(=O)c2cccc3c2SCCC3=O)cc1,-4.0,103.0,98.0,-43.7
Cc1nc(/C(=N/O)C(N)=O)cs1,15.7,100.0,101.0,-9.8
CCc1cc2c(=O)n(Cc3ccco3)c(SC)nc2s1,-1.5,103.0,104.0,-29.8
CCC(=N\Nc1nc2ccccc2[nH]1)/C(CC)=N/Nc1nc2ccccc2[nH]1,7.5,113.0,100.0,-79.2
COC(=O)c1c(C)nn(-c2ccccn2)c1-c1cc(C)on1,12.8,100.0,103.0,9.2
Cc1nc2cc(C(=O)OCC(=O)NC3CCS(=O)(=O)C3)ccc2n1-c1ccccc1 (stereo unspecified),-61.3,98.0,105.0,0.5
Cc1cccc(N(C)C(=O)c2ccc3c(=O)n4c(nc3c2)CCCCC4)c1,-8.7,103.0,103.0,-13.8
COC(=O)c1ccc(S(=O)(=O)N(C2CCCCC2)C2CCCCC2)n1C,-15.1,100.0,101.0,-8.4
CC1CCc2c(nc3ncnn3c2NCCC2CCCN2C)C1 (stereo unspecified),nt,104.0,104.0,-1.7
Cc1ccc(Cl)cc1N1CCN(C(=O)c2onc(C)c2Cl)CC1,-4.0,102.0,100.0,3.3
Cc1c(OC(=O)c2ccco2)ccc2c3c(c(=O)oc12)CCC3,-26.1,103.0,107.0,1.3
CCOC1=NC(C(F)(F)F)(C(F)(F)F)N=C(N2CCOCC2)O1,-1.5,101.0,97.0,-83.4
O=C(NCc1ccccc1)c1ccc(CN(c2ccccc2)S(=O)(=O)c2ccccc2)cc1,nt,109.0,115.0,-6.0
Cc1noc(C)c1CSc1nc2c(c(-c3ccccc3)c1C#N)C(=O)CC(C)(C)C2,-3.1,102.0,101.0,-3.2
COc1ccc(C(C)=NNC(=O)c2cc(Br)ccc2O)c(OC)c1,10.1,100.0,101.0,11.1
Cc1c(C(=O)Nc2ccccc2N2CCN(C)CC2)sc2nc3n(c(=O)c12)CCCCC3,30.4,102.0,105.0,-7.1
O=C1C2=C(c3ccccc31)[N+](=O)[C@@H]1CCCC[C@@H]1N2[O-],21.4,92.0,90.0,-2.7
CC(C)CN1CC(C(=O)O)CC1=O (stereo unspecified),-8.3,102.0,109.0,-7.2
Cc1ccc(NC(=O)CCc2ccc(C)o2)c(Br)c1,-19.5,103.0,101.0,-15.6
O=C(O)C=Cc1ccc(O)c(O)c1,-16.4,101.0,100.0,-12.0
CCCCSc1nnc(CNC(=O)c2ccccc2)n1-c1ccccc1,-2.8,101.0,103.0,-5.9
COc1ccccc1C(=O)Nc1ccc2c(c1)nc(CCNC(=O)c1ccco1)n2C,i,101.0,104.0,-4.9

# Complete entries, looked up by structure. Order of screens: Mtb MbtI inh | Polio RdRp inh | Polio RdRp inh intensity | Mtb MenB inh
# Record of Cc1ccc(Cl)cc1N1CCN(C(=O)c2onc(C)c2Cl)CC1 : -4.0 | 102.0 | 100.0 | 3.3
# Record of COC(=O)c1ccc(S(=O)(=O)N(C2CCCCC2)C2CCCCC2)n1C : -15.1 | 100.0 | 101.0 | -8.4

# Following part
SMILES,Mtb MbtI inh,Polio RdRp inh,Polio RdRp inh intensity,Mtb MenB inh
COc1ccccc1Cn1cnc2ccccc21,7.6,105.0,105.0,-3.9
CCCCOc1ccc(CSCCN=C(N)N)cc1,-3.9,105.0,104.0,-12.3
O=S(=O)(NCC(c1ccco1)N1CCN(c2ccc(F)cc2)CC1)c1cc(F)ccc1F (stereo unspecified),-5.2,102.0&100.0,110.0&104.0,-5.3
COc1ccc(CCCN=C(N)N)cc1Cl,-8.8,102.0,101.0,9.3
Cc1cccc(NC(=O)CN2C(=O)CC(C)S(=O)(=O)c3ccccc32)c1 (stereo unspecified),0.5,105.0,104.0,-8.6
CCN(C(=O)CSc1nc2nc(C)c(Cc3cc(C)ccc3C)c(C)n2n1)c1cccc(C)c1,13.0,101.0,97.0,-18.4
COc1ccc(S(=O)(=O)Cc2ccc(C(=O)O)o2)cc1,4.2,99.0,103.0,-28.9
Cc1nn(C)c(C)c1CNC(=O)c1ccc(N2CCOCC2)nc1,-7.5,105.0,111.0,8.8
Nn1c(Cc2ccccc2F)nnc1SCC(=O)NCc1ccc2c(c1)OCO2,-1.7,105.0,99.0,-24.6
O=C1C2ON(c3ccccc3)C(c3ccc(F)cc3)C2C(=O)N1c1ccccc1 (stereo unspecified),-7.0,98.0,98.0,-22.9
Cc1c(C(=O)NC2CCN(Cc3ccccc3)CC2)cnn1-c1ccc(F)cc1,0.1,105.0,115.0,19.3
Cc1ccc(C(=O)N(Cc2ccc3c(c2)OCO3)C2CCCC2)o1,-6.0,96.0,102.0,3.2
O=C1c2cccc3c(Cl)ccc(c23)C(=O)N1c1ccccn1,125.7,96.0,108.0,-14.4
COC(=O)Cc1[nH]n(-c2nc3ccccc3s2)c(=O)c1C(C)=NC1CC1,14.7,104.0,102.0,-52.1
C=CCn1cnc2sc3c(c2c1=O)CCC(C)C3 (stereo unspecified),-10.9,104.0,104.0,11.5
COc1ccc(C(=O)NC(=S)Nc2ccc3[nH]c(=O)[nH]c3c2)cc1Br,11.1,103.0,105.0,-41.0
